High-throughput results as filed in PubChem BioAssay.
RE007 growth inh = less growth of the S. pombe RE007 Vpr strain | S. pombe RE007 Vpr strain, BacTiter-Glo ATP luminescence, 24 h; control for the full effect not named in the record | Potency, µM (titrated, usually from 92.2 µM), for the others: at the highest dose activity change, negative = less growth | 360,000 compounds, 0.21% hits; active = well fitted falling curve with a large enough effect; inconclusive = small, poorly fitted or top-dose-only effect; inactive = no such curve, though single readings can be large or run the other way;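 further: on the % scale 0 is the no-effect control and ±100 the full control effect; nearly all actives have a fitted effect of over 50% in size; the assay follows cell death caused by Vpr and the record does not say whether a fall means rescue or toxicity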
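Fission yeast RE007 carrying one integrated HIV-1 vpr copy, seeded at OD 0.01 in PMG+AL medium with 23 nL pinned compound. Grown 24 h at 30 degrees; viability read by BacTiter-Glo luminescence after 5 min.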
SARS PLpro yeast = SARS-CoV PLP inhibition in yeast; S. cerevisiae expressing SARS-CoV PLpro, growth rescue; control for the full effect not named in the record; Potency, µM (top dose mostly 32.9 µM), for the others: at the top dose activity, positive = growth rescue; 330,000 compounds, 0.19% hits; AID 485353; active means well fitted rising curve with a large enough effect; inconclusive means small, poorly fitted or top-dose-only effect; inactive means no such curve, though single readings can be large or run the other way; further: 0% is about no effect; nearly all actives have a fitted effect of over 55% in size; growth read by luminescence after 48 h
NS1 function inh = influenza NS1 inhibition. S. cerevisiae slowed by influenza A NS1, growth recovery by OD600. 270,000 compounds, 0.4% hits. Potency, µM (top dose mostly 46.1 µM), inactives show at the highest dose activity, positive = more growth; active means well fitted rising curve with a large enough effect; inconclusive means small, poorly fitted or top-dose-only effect; inactive means no such curve, though single readings can be large or run the other way; further: nearly all actives have a fitted effect of over 50% in size
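Read-out: OD600 growth recovery of NS1-expressing budding yeast. Cells grown overnight at 30C in -URA glucose medium, washed, resuspended and diluted 1:100 in 2% galactose assay medium, pH 6.0. Same strain lacking NS1 served as positive control.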
Cruzain inh Det = blocks cruzain activity in presence of Triton detergent. P25779. purified cruzain, Z-FR-AMC fluorescence, 0.01% Triton. Potency, µM, inactives show max response, negative = inhibition, usual class: inhibitors. 200,000 compounds, 0.43% hits;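 further: plate controls were neutral wells for no effect and buffer without enzyme for full effect; nearly all actives have a fitted effect of over 40% in size; top concentration of the series not given in the record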
Target sequence (P25779 123-467 limits assumed): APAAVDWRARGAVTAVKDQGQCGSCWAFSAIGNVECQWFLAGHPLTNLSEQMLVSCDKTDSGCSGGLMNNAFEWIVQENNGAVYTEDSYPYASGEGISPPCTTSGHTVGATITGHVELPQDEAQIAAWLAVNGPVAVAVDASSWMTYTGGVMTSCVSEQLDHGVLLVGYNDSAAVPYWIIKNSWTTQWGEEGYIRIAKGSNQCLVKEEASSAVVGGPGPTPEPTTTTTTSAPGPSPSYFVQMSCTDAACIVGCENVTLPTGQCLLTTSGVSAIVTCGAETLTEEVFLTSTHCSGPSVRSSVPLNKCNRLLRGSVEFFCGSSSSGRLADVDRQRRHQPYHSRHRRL
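Enzyme 1.5 nM, Z-FR-AMC 2 uM, NaOAc 100 mM pH 5.5, DTT 5 mM, Triton X-100 0.01%; 15 min RT compound preincubation; kinetic ex360/em450, 60 s delta.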
MARV entry inh = Marburg virus entry inhibition; 300,000 compounds, 1.8% hits; Potency, µM (highest dose often 37.8 µM), for inactives: top-dose activity change, negative = inhibition, usual class: inhibitors; Marburg virus pseudotyped entry inhibition, cell reporter; control for the full effect not named in the record; about a third of the inactives were read at about 46 µM; active = well fitted inhibition curve with a large enough effect; inconclusive = small, poorly fitted or top-dose-only effect, or effect the other way; inactive = flat fitted curve, though single readings scatter; tested in HEK293 cells; about a fifth of its hits are not listed in these tables; further: on the % scale 0 is the no-effect control and ±100 the full control effect; luciferase read-out
Cruzain noTriton = cruzain (T. cruzi) inhibition without detergent | P25779 | purified cruzain, Z-FR-AMC fluorescence, no detergent | Potency, µM, for the others: max response, negative = inhibition, most hits filed as inhibitors | 200,000 compounds, 2.3% hits;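 further: plate controls were enzyme without inhibitor for no effect and buffer without enzyme for full effect; nearly all actives have a fitted effect of over 40% in size; top concentration of the series not given in the record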
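Detergent-free condition (0.00005% Triton X-100) in acetate buffer pH 5.5 with DTT. 1.5 nM enzyme and compound were pre-mixed 15 min, then 2 uM Z-FR-AMC substrate added; reaction progress from fluorescence change between first and third reads (60 s).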
StopGo reporter = lowers the luciferase signal of an FMDV 2A StopGo reporter | human cells with a luciferase reporter of 2A StopGo recoding; control for the full effect not named in the record | Potency, µM (series often up to 57.9 µM), for inactives: top-dose signal change, negative = less light | 410,000 compounds, 1.2% hits | AID 1159524; active = well fitted falling curve with a large enough effect; inconclusive = small, poorly fitted or top-dose-only effect; inactive = no such curve, though single readings can be large or run the other way; tested in HEK293T cells; further: on the % scale 0 is the no-effect control and ±100 the full control effect; nearly all actives have a fitted effect of over 45% in size; luciferase light after 4 h
Lassa entry inh = Lassa virus entry inhibition; Lassa virus pseudotype entry inhibition, cell reporter; control for the full effect not named in the record; Potency, µM (doses to about 37.9 µM), inactives show top-dose activity change, negative = inhibition, actives largely listed as inhibitors; 300,000 compounds, 1.2% hits; active means well fitted inhibition curve with a large enough effect; inconclusive means small, poorly fitted or top-dose-only effect, or effect the other way; inactive means flat fitted curve, though single readings scatter; tested in HEK293 cells; further: on the % scale 0 is the no-effect control and ±100 the full control effect; nearly all actives have a fitted effect of over 50% in size; luciferase read-out
Numbers without * were called inactive; ? = inconclusive; · = not tested or not shown; [ ] = remark or other dose. Unless noted, the call rests on the fitted dose curve; in most records, active means well fitted curve in the direction sought with a large enough effect; inconclusive means small, poorly fitted or top-dose-only effect, or another doubt; inactive means no such curve, though single readings can be large; an effect the other way counts as inactive or inconclusive. Potency means the concentration at half of the fitted maximal effect.

SMILES	RE007 growth inh	SARS PLpro yeast	NS1 function inh	Cruzain inh Det	MARV entry inh	Cruzain noTriton	StopGo reporter	Lassa entry inh
COc1cccc(CNC(=O)c2ccc(NC(=O)N3CCCCc4ccccc43)cc2)c1OC	·	·	·	-1.0%	·	0.6%	-29.3%	-7.9%[46.1 µM]
O=C(NCc1ccco1)c1ccc2c(c1)N(Cc1ccccc1)C(=O)CS2=O (stereo not drawn)	9.3%	12.7%	6.7%	-4.6%	·	-10.8%	-8.7%	·
CCOc1cccc(NC(=O)Cn2nc(-c3ccc4c(c3)OCCO4)ccc2=O)c1	11.2%	-0.7%	-1.5%	-5.3%	9.4%	-13.6%	0.0%	-12.6%
ON(Cc1c(F)cccc1Cl)Cc1c(F)cccc1Cl	-10.2%	0.3%	-4.0%	·	·	·	-4.8%	·
CC(C)NC(=O)Cn1cc(C#N)c2cc(Br)ccc21	3.1%	4.7%	4.5%	2.8%	3.3%	1.8%	11.4%	4.1%
O=C(NC(=O)c1ccccc1)NC1(C(F)(F)F)OCCO1	·	-0.1%	0.4%	4.4%	-3.5%	-3.9%	·	·
Cc1ccn2c(NC3CCCC3)c(-c3ccsc3)nc2c1	-23.0%	-6.0%	·	·	2.0%[46.1 µM]	·	-27.3%	23.0%
CCCc1cc(Nc2ccccc2)n2ncnc2n1	10.6%	-7.5%	-18.7%	·	·	·	1.2%	·
Cc1cccc(NC(=O)CSc2nc3ccc(NC(=O)COc4ccc(Cl)cc4)cc3s2)c1	·	·	·	-4.3%	-17.0%[46.1 µM]	7.94µM*	?	1.0%[46.1 µM]
O=C(NCc1ccc2c(c1)OCO2)C1CCCN1C(=O)Nc1cccc(F)c1 (stereo not drawn)	18.1%	-7.9%	-4.7%	2.6%	-0.4%	-1.0%	39.3%[activator]	3.0%
COc1cccc(CN(C)C(=O)c2cc(-c3ccc(OC)c(OC)c3)nc3ccccc23)c1	-10.7%	1.5%	4.6%	·	?	·	-27.4%	?
Cc1ccc(OCCN2CCN(C(=O)CCC(=O)Nc3nnc(CC(C)C)s3)CC2)cc1	-8.1%	0.8%	-7.0%	·	?	·	?	-27.2%
Cc1cc(NC(=O)COC(=O)CNC(=O)c2cccs2)c([N+](=O)[O-])cc1C	3.2%	-5.6%	·	·	24.3%	·	-14.9%	9.8%
Cc1ccc(CNC(=O)Cn2ccn(-c3cc(C)cc(C)c3)c(=O)c2=O)cc1	·	·	·	-7.4%	·	?	22.6%	15.4%[46.1 µM]
CCc1ccc(NC(=O)Cn2cnc3sc(C)c(S(=O)(=O)N4CCC(C)CC4)c3c2=O)cc1	·	·	·	1.0%	?	9.1%	-2.9%	13.8%[46.1 µM]
CC(C)c1ccc(S(=O)(=O)Nc2cc3c(cc2NCc2ccccc2)n(C)c(=O)n3C)cc1	·	·	·	-4.5%	?	-14.4%	-10.9%	-21.5%[46.1 µM]
CCOC(=O)C1CCCN(C(=O)C2CCN(S(=O)(=O)c3ccc(Cl)c(C(F)(F)F)c3)CC2)C1 (stereo not drawn)	12.4%	·	·	·	-20.9%	·	-18.1%	-19.3%
CCOCCCNC(=O)c1cc(=O)n(Cc2cccc(C)c2)c2ccccc12	1.1%	0.9%	·	·	?	·	-28.8%	·
CNC(=S)N(CCc1c(C)[nH]c2ccc(OC)cc12)Cc1ccco1	-14.1%	-0.7%	-1.9%	·	·	·	-18.4%	·
O=C(CSc1nc2ccccc2[nH]1)N1CCN(c2ccc(F)cc2)CC1	-17.9%	4.5%	-13.4%	-1.6%	-2.4%	-0.1%	?	-14.7%
CCNC(=O)C(=O)NCC(c1ccc2c(c1)OCO2)N1CCOCC1 (stereo not drawn)	4.7%	22.8%	?	·	0.5%[46.1 µM]	·	-0.5%	?
COc1cc(/C=N/Nc2ccccn2)ccc1OCC(C)C	-0.1%	-1.7%	·	·	?	·	32.8%[activator]	-4.6%
Fc1ccccc1N1CCN(C(c2cccs2)c2nnnn2CCc2ccccc2)CC1 (stereo not drawn)	17.8%	-1.0%	0.6%	-0.6%	?	8.1%	-9.4%	?
Cc1cccc(C2=Nc3ccccc3N=C(c3cc(Cl)ccc3O)C2)c1	·	·	·	-0.3%	·	-9.8%	-26.4%	11.1%[46.1 µM]
O=C(Nc1cccc(Cl)c1)Nc1ccc2nccnc2c1	-1.6%	-2.1%	-0.2%	·	·	·	7.7%	·
CS(=O)(=O)N(CC(=O)NCCC1=CCCCC1)c1cccc([N+](=O)[O-])c1	16.0%	-1.0%	0.4%	·	·	·	-0.5%	·
Cc1cc(Nc2ccc(Br)c(C)c2)n2nc(-c3ccco3)nc2n1	·	·	·	-9.6%	·	-10.5%	?	-0.6%[46.1 µM]
CC(C)(C)OC(=O)N1CCC(c2cc(=O)n3[nH]cc(C(=O)Nc4ccc(F)c(Cl)c4)c3n2)CC1	-1.6%	-0.8%	0.4%	·	·	·	-16.0%	·
COc1ccc(CNC(=O)C2Cc3ccccc3CN2C(=O)c2ccco2)cc1 (stereo not drawn)	3.0%	1.9%	0.4%	·	?	·	-1.3%	17.2%[46.1 µM]
COC(=O)c1cc(OC)c(OC)cc1NC(=O)c1cc(-c2ccccc2)nc2ccccc12	0.6%	4.3%	0.0%	-0.3%	-15.4%	17.0%	-16.1%	-6.9%
CCOc1ccc(/C=N/NC(=O)CC(=O)NCc2ccccc2)cc1	41.5%	0.7%	-1.1%	·	-0.1%[46.1 µM]	·	5.7%	?
NS(=O)(=O)c1ccc(NC(=O)C2Cc3ccccc3CN2C(=O)c2ccco2)cc1 (stereo not drawn)	-13.1%	4.0%	10.0%	·	1.2%[46.1 µM]	·	-8.4%	-10.3%
Cc1cccc(NC(=O)c2ccc(C3SCC(=O)N3CCc3ccccc3)cc2)c1 (stereo not drawn)	-2.5%	-16.0%	8.3%	-5.6%	?	-10.7%	?	?
Cc1cc(COc2ccccc2OCCN2CCN(C)CC2)no1	-14.7%	-1.0%	3.8%	3.3%	5.6%	2.5%	6.1%	17.2%
CCOC(=O)Cn1nnnc1C(CC)N(Cc1cc2c(C)cc(C)cc2[nH]c1=O)C1CCCC1 (stereo not drawn)	·	0.9%	-3.5%	-1.0%	·	4.7%	·	·
C[C@]12C(=O)N(c3ccc(C(F)(F)F)cc3)C(=O)N1[C@@H]1c3ccccc3OC[C@@H]1[C@H]2c1ccccc1	7.4%	15.3%	?	·	·	·	-22.4%	·
COc1ccc(C(=O)NCCS(=O)(=O)NCC2CCCO2)cc1 (stereo not drawn)	17.6%	-1.8%	·	·	2.6%[46.1 µM]	·	0.3%	-1.5%
CC1C(=O)N2CCCc3cc(S(=O)(=O)Nc4ccccc4C(N)=O)cc1c32 (stereo not drawn)	4.7%	-5.6%	·	·	3.9%	·	-6.1%	24.5%
COCCCn1c(-c2cccs2)nc2nc3ccccc3nc21	-12.8%	0.4%	-6.3%	·	·	·	-0.4%	·
COc1cccc(N2C(=O)N(c3ccccc3)C3CS(=O)(=O)CC32)c1 (stereo not drawn)	-7.0%	2.4%	8.1%	0.5%	-2.7%	6.8%	5.7%	-1.9%
O=C(COC(=O)c1ccc(S(=O)(=O)NCc2ccco2)cc1)NCCC1=CCCCC1	-11.2%	-4.4%	4.4%	-1.9%	-0.2%	?	-13.3%	0.2%
COc1cc(S(=O)(=O)N2CCN3CCCC3C2)ccc1-n1cnnn1 (stereo not drawn)	-1.1%	3.3%	-2.6%	2.7%	-3.5%	-0.3%	·	?
COc1ccccc1C1C(C(=O)N2CCCCC2)=C(C)Nc2nc3ccccc3n21 (stereo not drawn)	·	·	·	-2.3%	?	10.5%	3.2%	-20.7%[46.1 µM]
Cn1ncc2c(Nc3ccc(Cl)cc3)ncnc21	-23.7%	-5.4%	-15.7%	·	·	·	56.4%[activator]	·
O=C(N[C@@H](Cc1ccccc1)C(=O)N1CCC2(CC1)NCCc1[nH]cnc12)c1cccc(Br)c1	-15.4%	-0.3%	2.3%	·	·	·	-19.7%	·
O=C(C[n+]1cc(-c2ccc(Br)cc2)n2c1CCCCC2)c1ccccc1	-2.0%	1.2%	·	·	?	·	-15.3%	-23.3%[46.1 µM]
O=C(O)CCn1c(C2CCCCC2)nc2ccccc21	-1.7%	-2.6%	-2.8%	-1.7%	?	-10.7%	-8.6%	13.2%
CCn1c(SCC(=O)Nc2ccc(OC)c(OC)c2)nnc1-c1cnccn1	-3.9%	-4.5%	1.0%	·	26.6%[46.1 µM]	·	-6.9%	2.2%[46.1 µM]
COc1cc(/C=C/C(=O)Nc2nnc(C(C)(C)C)s2)cc(OC)c1OC	-3.7%	-2.1%	3.4%	-1.6%	?	?	?	-4.7%
Cc1ccc2c(c1)c1c3n2CCN(CC#N)C3CCC1 (stereo not drawn)	-3.5%	-0.1%	-10.6%	·	0.8%[46.1 µM]	·	4.4%	11.7%[46.1 µM]
COc1ccc(-c2csc(NC(=O)CCn3cnc4ccccc4c3=O)n2)cc1OC	5.8%	?	1.1%	-4.1%	?	?	·	?
CC(C)OCCCNC(=O)C1CC(=O)N(CCc2ccc(F)cc2)C1 (stereo not drawn)	-7.6%	0.0%	6.0%	·	1.2%[46.1 µM]	·	-5.2%	12.9%[46.1 µM]
CN(C(=O)c1ccc(S(=O)(=O)c2cccc(Cl)c2)c([N+](=O)[O-])c1)C1CCCCC1	14.2%	7.4%	6.6%	-3.5%	?	8.5%	?	?
COc1cccc(-n2ccnc2SCC(=O)Nc2c(C)cc(C)cc2C)c1	·	·	·	-2.2%	·	0.1%	-4.6%	-22.8%[46.1 µM]
CCOC(=O)c1[nH]c2c(c1C)C(=O)CC(c1ccc(OC)c(OC)c1)C2 (stereo not drawn)	10.4%	0.8%	3.4%	2.3%	-20.3%	-8.9%	-9.9%	-6.2%
COC(=O)c1ccc(NC(=O)CSc2nnc(-c3ccccc3Br)n2-c2ccccc2)cc1	10.9%	·	·	·	20.1%[46.1 µM]	·	-19.2%	-27.4%
CCCCC(CC)CNS(=O)(=O)c1ccc2c(c1)CCN2C(=O)CCC(=O)O (stereo not drawn)	-5.5%	-10.0%	13.3%	-3.0%	0.7%	?	14.4%	10.6%
Cc1ccccc1CS(=O)(=O)c1nnc([C@H](Cc2ccccc2)NC(=O)OC(C)(C)C)o1	-15.1%	-37.1%	-149.6%	14.1µM*	?	?	28.2µM*	?
Cc1ccc(OCCC(=O)OCC(=O)c2c(N)n(C)c(=O)n(C)c2=O)cc1	10.2%	2.3%	·	·	6.6%	·	2.3%	23.2%
